Compound activity from PubChem.
HNF4A DNA FP: change in binding of human HNF4A to DNA, primary screen, biochemical, fluorescence polarization, FITC-DNA | Hepatocyte nuclear factor 4-alpha (Homo sapiens), P41235 | 1 h | activity change, % at 10 µM | 360,000 compounds, 0.3% hits | AID 1224865, 2016; in the data active = activity change above about 30%, passing the limit was not always enough;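 note: controls were the assay level and a saturating level of protein; the project sought stronger binding though the title names inhibitors; some compounds called inactive have numbers as strong as hits; positive values seem to mean higher polarization but the record does not say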
Target sequence (P41235 whole entry, looked up): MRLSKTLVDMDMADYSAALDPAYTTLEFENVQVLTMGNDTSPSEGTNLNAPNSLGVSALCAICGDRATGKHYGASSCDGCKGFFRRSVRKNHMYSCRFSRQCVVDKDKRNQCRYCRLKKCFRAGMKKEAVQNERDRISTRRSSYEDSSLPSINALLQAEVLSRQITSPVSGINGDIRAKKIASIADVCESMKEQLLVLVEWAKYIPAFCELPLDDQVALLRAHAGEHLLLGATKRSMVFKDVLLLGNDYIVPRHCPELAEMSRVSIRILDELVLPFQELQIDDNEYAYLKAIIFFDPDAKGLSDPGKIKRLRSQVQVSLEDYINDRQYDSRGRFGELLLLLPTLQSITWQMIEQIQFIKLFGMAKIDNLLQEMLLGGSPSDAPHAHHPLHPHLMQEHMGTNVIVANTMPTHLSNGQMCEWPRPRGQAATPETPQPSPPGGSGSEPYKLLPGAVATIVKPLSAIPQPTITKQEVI
FGF22 binding: binders of human FGF22 protein, primary screen, FGF22 synaptogenesis inhibitor project, biophysical, thermal shift, single point; recombinant FGF22 thermal shift, SYPRO orange fluorescence; percent of sucrose octasulfate shift, DMSO zero; AID 651658, 2012; 340,000 compounds, 1.5% hits; calls only at 9.99 µM;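 active = melting point raised past a set limit in the mean and every replicate; three in four hits are not shown here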
Target sequence (Q9HCT0 whole entry, looked up): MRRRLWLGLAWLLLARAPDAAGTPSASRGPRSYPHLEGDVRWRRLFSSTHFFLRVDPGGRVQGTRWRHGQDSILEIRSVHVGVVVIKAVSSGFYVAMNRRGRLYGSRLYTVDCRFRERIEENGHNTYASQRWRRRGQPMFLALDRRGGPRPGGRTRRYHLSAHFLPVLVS
ALR inh: inhibitors of human ALR sulfhydryl oxidase, primary screen, biochemical, H2O2 detection, HRP-luminol luminescence, single point. purified ALR, DTT oxidation. inhibition, % (concentration not given with the values). 290,000 compounds, 3.8% hits. AID 485317, 2010;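 active = mean and each replicate at 75% or more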;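 note: stock transfer was 7.5 nL into about 7.5 µL; 0% = neutral wells and 100% = wells with inactivated enzyme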
Target sequence (P55789 whole entry, looked up): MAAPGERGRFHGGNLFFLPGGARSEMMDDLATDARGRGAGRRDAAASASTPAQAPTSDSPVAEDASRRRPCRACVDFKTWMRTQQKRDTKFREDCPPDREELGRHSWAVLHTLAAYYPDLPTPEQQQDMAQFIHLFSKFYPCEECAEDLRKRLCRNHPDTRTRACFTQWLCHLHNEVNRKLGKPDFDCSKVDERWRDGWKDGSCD
AF4-AF9 inh: inhibitors of AF4 peptide binding to AF9, primary screen, biochemical, AlphaScreen, biotin-AF4 peptide, FLAG-AF9, single point | AID 651704, 2012 | 350,000 compounds, 0.47% hits | Protein AF-9 (Homo sapiens), P42568 | inhibition, % at 10 µM;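 active = every replicate reaching a set inhibition limit, whatever the replicate mean, cut at about 25% in these data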;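 note: 0% = plate neutral control median and 100% = total signal loss; the record names both 10 and 1 µM as test concentration; the first replicate is given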
rRNA inh HTS: reduced GFP signal of wild-type E. coli, primary screen, bacterial rRNA inhibitor project, GFP/RFP fluorescence, OD600, single point. E. coli WT GFP vs humanized-ribosome RFP mutants, 24 h; hits give low values; DMSO median 0, no signal -100. GFP signal change (wild-type ribosome), % (no concentration beside the values). 350,000 compounds, 1.6% hits;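 active = significant combined selectivity score with lowered wild-type GFP, culture density cut under 30%, mutant RFP and density less affected; inactive = any of these conditions unmet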; note: one replicate is shown; some compounds called inactive have numbers as strong as hits
Vif TR-FRET: inhibitors of Vif binding to APOBEC3G peptide, primary screen, biochemical, TR-FRET, GST-Vif 1-94, biotin-A3G peptide, dose response retest (AID 1117319). Virion infectivity factor (Human immunodeficiency virus type 1 group M subtype B (isolate …. one-dose inhibition, %; IC50 in µM for titrated hits. TR-FRET GST-Vif / biotin-A3G peptide binding; higher % means a stronger effect; test concentration not given here; strong numbers were not always called active. 260,000 compounds, 0.57% hits;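 active = above the screen mean plus three standard deviations and confirmed in dose response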;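 note: Vif residues 1-94 fused to GST binding biotinylated APOBEC3G peptide 110-148; 0% = full assay without inhibitor and 100% = GST in place of GST-Vif; retest series ran down from 100 µM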
Ecoli growth: E. coli growth inhibition, primary screen, OD600; Escherichia coli growth, 23 h; hits give low values; OD600 absorbance (test concentration not listed); 330,000 compounds, 0.21% hits; AID 1053175, 2014;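 active = OD600 absorbance below the run mean of sample wells minus 3.6 SD, in any replicate, cut at about 0.56 in these data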;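 note: stock transfer was 300 nL into about 60 µL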
rRNA inh HTS OD600: also measured in rRNA inh HTS; calls as there; OD600 change, %; measured here: OD600 growth;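 optical density of the mix in the first replicate; 0 = DMSO median and -100 = no signal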
rRNA inh HTS RFP: recorded beside rRNA inh HTS, whose call it bears; RFP signal change, %; measured here: RFP humanized mutant strains;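 first replicate; 0 = DMSO median and -100 = no signal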
The depositor's hits bear a star; i = inactive; nt = no result given. This is a subset. The share of hits here may be higher or lower than overall.

SMILES,Vif TR-FRET,FGF22 binding,rRNA inh HTS RFP,HNF4A DNA FP,rRNA inh HTS OD600,rRNA inh HTS,AF4-AF9 inh,Ecoli growth,ALR inh
C[C@H]1CN([C@@H](C)CO)S(=O)(=O)c2ccc(C#Cc3ccccc3)cc2O[C@H]1CN(C)C,nt,i,8.4,nt,2,0,7.8,nt,nt
CCOC(=O)N1CCC(n2c(SCC(=O)NCc3ccco3)nc3ccsc3c2=O)CC1,23%,nt,nt,1.2,nt,nt,nt,0.69,nt
COc1ccccc1Cc1c(-c2cccc(Br)c2)nc2c(C)cc(Br)cn12,nt,i,25,12,-8,-18,0.7,nt,nt
CN1CCN(S(=O)(=O)c2cccc(C(=O)NC3(C)CCS(=O)(=O)C3)c2)CC1 (centres undefined),-4%,i,-1.3,-0.9,19,11,-0.8,0.67,-12
C[C@@H]1CN([C@@H](C)CO)S(=O)(=O)c2ccc(-c3cccnc3)cc2O[C@@H]1CN(C)Cc1cncnc1,nt,i,-0.9,nt,-5,-5,-1.0,nt,nt
COc1ccccc1C#Cc1cnc2c(c1)C(=O)N([C@@H](C)CO)C[C@H](C)[C@H](CN(C)S(=O)(=O)c1cn(C)cn1)O2,nt,i,-6.1,nt,1,-4,-14,nt,nt
O=C1NCCC12C(=O)Nc1ccccc12 (centres undefined),nt,i,nt,0.8,nt,nt,6.4,0.71,-5
Cc1ccc(-n2nnnc2SCc2nnc(-c3ccccc3Br)o2)cc1,7%,nt,nt,5.0,nt,nt,nt,0.62,-5
Cc1ccc(S(=O)(=O)N(C)C)cc1NC(=O)COc1ccc(-c2nnco2)cc1,-13%,i,-0.4,-2.5,7,16,-1.6,0.67,-20
CCc1ccc(NC(=O)NC2CCCCCCC2)cc1,nt,i,-0.8,0.5,-3,-1,-3.2,0.66,-15
Cc1ccc(OCCc2csc(N)n2)cc1,-2%,i,4.1,2.0,-2,-2,2.3,0.67,6
CCC(C(=O)NCc1cccnc1)n1nc(C)c2sc3ccccc3c2c1=O (centres undefined),nt,i,-0.3,-2.8,-9,-1,0.9,0.69,-5
Cc1cccc(NC(=O)c2onc3c2CCCC3)c1C,-7%,nt,nt,-0.6,nt,nt,nt,0.65,-13
Cc1ccccc1NC(=O)Nc1nc(CN)cs1,nt,i,-1.5,-0.1,-2,-4,3.5,nt,nt
COc1ccc(C(=O)Nc2cc(C(F)(F)F)ccc2Cl)cc1OC,7%,nt,nt,-2.5,nt,nt,nt,0.65,1

The list continues.
SMILES,Vif TR-FRET,FGF22 binding,rRNA inh HTS RFP,HNF4A DNA FP,rRNA inh HTS OD600,rRNA inh HTS,AF4-AF9 inh,Ecoli growth,ALR inh
CCC(=O)Nc1ccc(C(=O)NNC(=O)c2cccs2)cc1,-6%,nt,nt,1.0,nt,nt,nt,0.74,-5
CC=Cc1ccc2n(c1=O)C[C@@H]1[C@@H](CO)[C@H](C(=O)NCc3ccccc3)N(CCC(F)(F)F)[C@H]21 (mixture of isomers),nt,i,-1.0,nt,-4,0,1.0,nt,nt
CCOc1ccc(NC(=O)CN(C)C(=O)c2ccccc2-n2cnnn2)cc1OCC,-3%,i,1.2,3.8,9,8,2.9,0.68,nt
CCCN(CCC)CCNC(=O)C1(O)c2ccccc2NC(=O)N1c1cccc(OC)c1 (centres undefined),3%,i,-1.0,-0.4,12,10,-2.1,0.68,-3
N#C[C@H]1[C@@H](c2ccccc2)[C@@H](CO)N1C(=O)C1CCCC1,nt,i,-3.2,nt,8,7,-7.1,nt,nt
COc1ccc(C(c2c(O)ccc3ccccc23)N2CCOCC2)c(OC)c1 (centres undefined),7%,nt,nt,1.4,nt,nt,nt,nt,4
CCOc1ccc(/C(O)=C2\C(=O)C(=O)N(CCOCCO)C2c2ccccc2OC)cc1 (centres undefined),2%,nt,nt,1.9,nt,nt,nt,0.74,6
Cc1cc(C)n(-c2ncnc3sc(C)c(C)c23)n1,-3%,nt,nt,0.7,nt,nt,nt,0.74,-6
O=C(/C(=N/O)c1ccccc1)c1ccccc1,nt,nt,2.6,1.0,-2,-3,-9.0,nt,nt
CC1CCCN(S(=O)(=O)c2ccc(Br)s2)C1 (centres undefined),-2%,i,-4.8,17,-35,-41,0.0,0.68,nt
COc1ccc(N2CCN(C(=S)Nc3cccc(C)c3C)CC2)cc1,-2%,i,1.3,4.3,8,13,-17,0.7,4
O=C(Nc1ccc2c(c1)C(=O)OC2)c1ccccc1Cl,nt,i,-0.1,1.7,9,2,-0.4,0.64,2
C[C@@H](O)C#Cc1ccc([C@@H]2[C@@H](CO)N3CCCCN(C(=O)Nc4ccccc4)C[C@@H]23)cc1,nt,i,-2.9,nt,-10,5,-12,nt,nt
COc1cccc(/C=C2/SC(=O)N(C)C2=O)c1OCc1ccc(C(=O)O)cc1,15%,i,-3.7,-3.3,-21,-14,4.8,0.69,1
Cn1cnnc1SCC(=O)Nc1ccc(Cl)cc1,nt,i,-2.7,1.2,6,4,-3.0,0.66,-1

(listing goes on)
SMILES,Vif TR-FRET,FGF22 binding,rRNA inh HTS RFP,HNF4A DNA FP,rRNA inh HTS OD600,rRNA inh HTS,AF4-AF9 inh,Ecoli growth,ALR inh
Cn1c(Cc2ccccc2)nnc1SCC(=O)Nc1ccc2c(c1)OCO2,6%,nt,nt,-1.9,nt,nt,nt,0.73,-9
CCN1CCN(Cc2ccc(NC(=O)c3cc(NC(=O)c4cncc(-c5cccs5)c4)cc(OC)c3)cc2C(F)(F)F)CC1,-10%,i,nt,14,nt,nt,1.1,nt,2
Cc1ccccc1Nc1nc(N)c2ccccc2n1,nt,i,1.9,-4.1,10,18,8.7,0.65,-20
CO[C@H]1CN(C)C(=O)c2cc(NC(=O)C3CC3)ccc2OC[C@H](C)N(Cc2ccccc2)C[C@H]1C,nt,i,1.9,nt,-5,-2,1.4,nt,nt
O=C(O)CNC(=O)CCCn1nnc2ccccc2c1=O,2%,i,-0.2,-3.0,5,5,-5.3,0.69,-1
CC(C)NC(=O)Nc1ccc2c(c1)CC(=O)N([C@@H](C)CO)C[C@@H](C)[C@H](CN(C)CC1CCCCC1)O2,nt,i,0.6,nt,-6,3,4.0,nt,nt
O=C(NCc1cccnc1)c1[nH]c(C(F)(F)F)nc1-c1ccccc1,nt,i,-2.7,-0.2,7,1,-2.4,nt,nt
COc1ccc(NC(=O)CSc2nnc(-c3ccco3)n2N)cc1Cl,2%,i,-0.5,1.9,8,18,-5.2,0.66,-1
CCCOc1ccc(-c2nc(C#N)c(N3CCN(C)CC3)o2)cc1,4%,nt,nt,0.8,nt,nt,nt,0.73,-2
C[C@@H]1CN([C@@H](C)CO)C(=O)c2cc(NC(=O)C3CC3)ccc2O[C@H]1CN(C)Cc1ccc2c(c1)OCO2,nt,i,0.6,nt,7,5,-0.1,nt,nt
CC1CCN(C(=O)C2CCN(S(=O)(=O)c3cccnc3)CC2)CC1,-5%,nt,nt,-4.0,nt,nt,nt,0.68,-3
O=C(CN1C(=O)c2ccccc2C1=O)c1ccccc1,1%,nt,nt,1.3,nt,nt,nt,0.77,-4
COc1ccc(CNC(=O)c2csc(Cc3ccc(Cl)cc3)n2)cc1,-2%,nt,nt,3.7,nt,nt,nt,0.69,3
COc1cc(SC)ccc1C(=O)NC(C)C,4%,i,nt,3.1,nt,nt,-0.8,0.69,-2
CC(C)c1cn(CC[C@H]2CC[C@H](NS(=O)(=O)Cc3ccccc3)[C@@H](CO)O2)nn1,nt,i,-2.6,nt,3,2,-2.7,nt,nt

Going on with the list.
SMILES,Vif TR-FRET,FGF22 binding,rRNA inh HTS RFP,HNF4A DNA FP,rRNA inh HTS OD600,rRNA inh HTS,AF4-AF9 inh,Ecoli growth,ALR inh
Cc1ccc2c(=O)cc(C(=O)NCCc3ccc(S(N)(=O)=O)cc3)oc2c1,-2%,nt,nt,-2.6,nt,nt,nt,0.64,nt
CC[C@H](C)[C@H](NC(=O)OCc1ccccc1)C(=O)Nc1ccc(NC(C)=O)cc1,-8%,i,-1.5,0.3,14,5,0.4,0.7,-3
CCOC(=O)N1CCN(C(=O)CCn2c(=O)[nH]c3ccsc3c2=O)CC1,-4%,i,-6.7,2.4,2,8,-5.0,0.68,-6
CC(C)(C)c1ccc(S(=O)(=O)N2CC(C(=O)O)Oc3ccc(Cl)cc32)cc1 (centres undefined),-5%,i,0.5,0.2,-5,-8,-2.0,0.63,nt
CN1C(=O)/C(=C/c2ccc(OCc3cccc(F)c3)cc2)NC1=S,nt,i,-0.6,5.6,1,2,-3.4,0.7,-4
CC(C)CC1NC(=O)N(Cc2nc3ccccc3s2)C1=O (centres undefined),10%,i,8.0,5.2,-2,6,-42,0.65,-24
CC1CC(C)CN(CCCNC(=O)CN2C(=O)c3cccnc3Oc3ccccc32)C1 (centres undefined),-22%,i,0.4,-0.8,4,10,-1.4,0.7,-9
CCNC(=O)c1sc2cc(C)ccc2c1Cl,1%,nt,-2.6,1.3,-28,-22,-3.1,0.71,-5
CN(Cc1ccccc1)C1=CC(=[N+]2CCCC2)CC(C)(C)C1,nt,i,-4.5*,-2.8,-15*,-33*,-1.1,0.67,nt
O=C(NCC[C@H]1CC[C@H](NC(=O)c2cnccn2)[C@@H](CO)O1)Nc1ccc(Cl)cc1,nt,i,-0.9,nt,-63,-44,16,nt,nt
CCOc1ccc(/C=N\NC(=O)CC(=O)NCCc2ccccc2)cc1,nt,i,-0.5,1.6,12,11,-2.0,nt,-21
O=C(C1CC1)N1CC2(C1)[C@@H](c1ccccc1)[C@@H](CO)N2CCC(F)(F)F,nt,i,-1.7,nt,0,1,-0.3,nt,nt
CCn1c(COc2ccccc2C)nnc1SCc1nc2ccccc2c(=O)[nH]1,-4%,nt,nt,nt,nt,nt,nt,0.66,-3
COc1ccccc1C(=O)OCC(=O)Nc1ccc(Cl)cn1,-4%,i,0.8,0.3,1,2,0.0,0.64,-3
Cn1cc(C=O)c2ccccc21,nt,i,-7.1,-0.3,2,15,-0.8,0.64,3
C/C(=N\NC(=O)c1ccc2c(c1)OCO2)c1ccco1,-3%,i,-3.4,1.1,-1,6,-1.2,nt,nt
Cc1ccc(C(=O)NCc2ccc(Cl)c(Cl)c2)o1,-1%,nt,nt,-1.2,nt,nt,nt,0.72,-5
C/C(=C\c1ccccc1)C(=O)NCCc1ccccc1,7%,i,-1.3,-0.4,7,7,-6.3,nt,-1
